Compound activity from PubChem BioAssay.
MARV entry inh – blocks Marburg virus binding to or entry into cells. Marburg virus pseudotyped entry inhibition, cell reporter; control for the full effect not named in the record; about a third of the inactives were read at about 46 µM. 300,000 compounds, 1.8% hits. Potency, µM (highest dose often 37.8 µM), inactives show at the highest dose activity change, negative = inhibition, most hits filed as inhibitors. AID 540276; active = well fitted inhibition curve with a large enough effect; inconclusive = small, poorly fitted or top-dose-only effect, or effect the other way; inactive = flat fitted curve, though single readings scatter; tested in HEK293 cells; about a fifth of its hits are not listed in these tables; also: % is scaled to controls: 0 for no effect and ±100 for the full control effect; luciferase read-out
SARS PLP yeast – SARS-CoV PLP inhibition in yeast; Potency, µM (titrated, usually from 32.9 µM), for inactives: at the top dose activity, positive = growth rescue; S. cerevisiae expressing SARS-CoV PLpro, growth rescue; control for the full effect not named in the record; 330,000 compounds, 0.19% hits; also: 0% is about no effect; nearly all actives have a fitted effect of over 55% in size; growth read by luminescence after 48 h
Lassa entry inh – blocks Lassa virus binding to or entry into cells. AID 540256. Potency, µM (doses to about 37.9 µM), without a hit: at the highest dose activity change, negative = inhibition, most hits filed as inhibitors. Lassa virus pseudotype entry inhibition, cell reporter; control for the full effect not named in the record. 300,000 compounds, 1.2% hits; active means well fitted inhibition curve with a large enough effect; inconclusive means small, poorly fitted or top-dose-only effect, or effect the other way; inactive means flat fitted curve, though single readings scatter; tested in HEK293 cells; also: % is scaled to controls: 0 for no effect and ±100 for the full control effect; nearly all actives have a fitted effect of over 50% in size; luciferase read-out
NS1 function inh – inhibitors of influenza NS1 protein function; S. cerevisiae slowed by influenza A NS1, growth recovery by OD600; Potency, µM (doses to about 46.1 µM), for inactives: top-dose activity, positive = more growth; 270,000 compounds, 0.4% hits; also: actives are rising curves; nearly all actives have a fitted effect of over 50% in size
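In this qHTS, NS1 from influenza A is expressed in budding yeast, where it slows growth. Cells are switched from glucose to 2% galactose medium (pH 6.0, -URA), treated with compound, and growth recovery is read at OD600.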
Cruzain Triton – cruzain (T. cruzi) inhibition with detergent | P25779 | purified cruzain, Z-FR-AMC fluorescence, 0.01% Triton | Potency, µM, inactives show max response, negative = inhibition, most hits filed as inhibitors | 200,000 compounds, 0.43% hits; active = well fitted curve in the direction sought with a large enough effect; inconclusive = small, poorly fitted or top-dose-only effect, or another doubt; inactive = no such curve, though single readings can be large; an effect the other way counts as inactive or inconclusive;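 also: plate controls were neutral wells for no effect and buffer without enzyme for full effect; nearly all actives have a fitted effect of over 40% in size; top concentration of the series not given in the record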
Target sequence (P25779 123-467 limits assumed): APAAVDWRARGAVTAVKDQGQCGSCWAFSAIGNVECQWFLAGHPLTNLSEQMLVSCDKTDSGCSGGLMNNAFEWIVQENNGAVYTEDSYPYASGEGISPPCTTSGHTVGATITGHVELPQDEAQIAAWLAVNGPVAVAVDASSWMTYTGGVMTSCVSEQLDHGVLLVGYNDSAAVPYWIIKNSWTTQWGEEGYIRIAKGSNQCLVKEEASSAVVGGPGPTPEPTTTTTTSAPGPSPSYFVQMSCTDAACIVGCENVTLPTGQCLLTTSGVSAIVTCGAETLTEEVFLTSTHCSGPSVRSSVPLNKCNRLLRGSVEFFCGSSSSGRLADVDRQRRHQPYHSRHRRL
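Steps: dispense cruzain (1.5 nM final) in acetate buffer pH 5.5 with DTT and 0.01% Triton X-100; pin-transfer compounds; incubate 15 min RT; add Z-FR-AMC (2 uM final); read fluorescence every 30 s, using the 60 s intensity change.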
StopGo reporter – FMDV 2A StopGo reporter, luciferase signal | human cells with a luciferase reporter of 2A StopGo recoding; control for the full effect not named in the record | Potency, µM (titrated, usually from 57.9 µM), without a hit: top-dose signal change, negative = less light | 410,000 compounds, 1.2% hits | AID 1159524; active = well fitted falling curve with a large enough effect; inconclusive = small, poorly fitted or top-dose-only effect; inactive = no such curve, though single readings can be large or run the other way; tested in HEK293T cells; also: % is scaled to controls: 0 for no effect and ±100 for the full control effect; nearly all actives have a fitted effect of over 45% in size; luciferase light after 4 h
RE007 growth inh – less growth of the S. pombe RE007 Vpr strain | S. pombe RE007 Vpr strain, BacTiter-Glo ATP luminescence, 24 h; control for the full effect not named in the record | Potency, µM (doses to about 92.2 µM), for inactives: at the highest dose activity change, negative = less growth | 360,000 compounds, 0.21% hits | AID 651644; active = well fitted falling curve with a large enough effect; inconclusive = small, poorly fitted or top-dose-only effect; inactive = no such curve, though single readings can be large or run the other way;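 also: % is scaled to controls: 0 for no effect and ±100 for the full control effect; nearly all actives have a fitted effect of over 50% in size; the assay follows cell death caused by Vpr and the record does not say whether a fall means rescue or toxicity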
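Fission yeast RE007 carrying one integrated HIV-1 vpr copy, seeded at OD 0.01 in PMG+AL medium with 23 nL pinned compound. Grown 24 h at 30 degrees; viability read by BacTiter-Glo luminescence after 5 min.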
Cruzain noTriton – blocks cruzain activity in detergent-free assay; P25779; purified cruzain, Z-FR-AMC fluorescence, no detergent; Potency, µM, for the others: max response, negative = inhibition, hits mostly inhibitors; 200,000 compounds, 2.3% hits; AID 1476; active = well fitted curve in the direction sought with a large enough effect; inconclusive = small, poorly fitted or top-dose-only effect, or another doubt; inactive = no such curve, though single readings can be large; an effect the other way counts as inactive or inconclusive;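 also: plate controls were enzyme without inhibitor for no effect and buffer without enzyme for full effect; nearly all actives have a fitted effect of over 40% in size; top concentration of the series not given in the record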
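Detergent-free condition (0.00005% Triton X-100) in acetate buffer pH 5.5 with DTT. 1.5 nM enzyme and compound were pre-mixed 15 min, then 2 uM Z-FR-AMC substrate added; reaction progress from fluorescence change between first and third reads (60 s).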
* marks the source's active call; other numbers are inactive results; ? = inconclusive; . = no result given; & = joins results of further samples; [ ] = remark or other dose. Unless noted, calls follow the shape of the dose curve; as a rule, active means well fitted rising curve with a large enough effect; inconclusive means small, poorly fitted or top-dose-only effect; inactive means no such curve, though single readings can be large or run the other way. Potency is read from the fitted curve at half-maximal effect.

Compound	MARV entry inh	SARS PLP yeast	Lassa entry inh	NS1 function inh	Cruzain Triton	StopGo reporter	RE007 growth inh	Cruzain noTriton
CCN(CC)S(=O)(=O)c1ccc2c(c1)N(CC(=O)N1CCCC1)C(=O)CO2	?	0.3%	-16.4%[46.1 µM]	-1.5%	.	-11.8%	8.8%	.
CCn1cc(C(=O)OCC(=O)Nc2cc(C)cc(C)c2)c(=O)c2ccc(C)nc21	?	.	-20.5%[46.1 µM]	.	-3.4%	-8.5%	.	1.7%
CCn1c(Cn2nnc(-c3ccccc3)n2)nnc1SCC(=O)N1CCOCC1	-3.1%	1.2%	-0.1%	-1.2%	4.4%	12.5%	18.1%	7.7%
Cn1c(=O)n(-c2ccc(Br)cc2F)c(=O)c2sc3ccccc3c21	-0.6%[46.1 µM]	.	-0.3%[46.1 µM]	.	1.7%	-18.3%	.	-0.3%
COc1ccc2c(c1)c(=O)oc1c(C)c(OCc3cc(C(=O)O)oc3C)ccc12	0.6%[46.1 µM]	0.2%	.	.	.	?	-2.9%	.
COc1ccc(S(=O)(=O)N/N=C\c2ccc3c(c2)OCO3)c(OC)c1	?	-3.4%	?	-9.2%	.	32.5%[activator]	-13.5%	.
Cc1cc(C)c(C)c(S(=O)(=O)N2CCCCC2C(=O)O)c1C (stereo not given)	19.0%[46.1 µM]	-4.5%	13.1%[46.1 µM]	.	.	0.7%	0.7%	.
Cc1ccccc1C(=O)N1CCN(CCc2ccccn2)CC1	5.2%[46.1 µM]	.	2.5%[46.1 µM]	.	-1.6%	-13.9%	.	-5.5%
CSc1ccc(C(=O)/C=C/c2ccc(N)cc2)cc1	?	-13.5%	-16.1%	-32.0%	-9.3%	0.0%	-5.8%	1.1%
COc1ccccc1N1CCN(C2CCCN(S(=O)(=O)c3ccc(C)cc3)C2)CC1 (stereo not given)	.	2.1%	.	-15.9%	.	?	-10.1%	.
O=C(Nc1ccccc1)c1cnc2ccccc2n1	28.2%	-1.4%	?	1.9%	-5.0%	13.7%	0.4%	-3.1%
Cc1cc(C)c[n+](CC(=O)c2ccc(NC(=O)c3ccccc3)cc2)c1	13.7%[46.1 µM]	0.3%	-2.5%	6.3%	.	2.1%	3.9%	.
O=C(COc1ccc(S(=O)(=O)N2CCOCC2)cc1)N1CCN(Cc2ccc3c(c2)OCO3)CC1	-24.9%	-0.3%	-6.8%	-6.0%	-1.3%	?	-2.2%	-1.4%
COc1ccc(N=C2SC(CC(=O)Nc3ccccc3)C(=O)N2CCN2CCOCC2)cc1 (stereo not given)	-8.0%[46.1 µM]	-11.0%	-29.2%	.	.	14.3%	-17.4%	.
CC1CCCCC1NC(=O)Cn1nnc(-c2ccc(Cl)cc2)n1 (stereo not given)	-2.7%	?	4.2%	-2.9%	1.7%	.	3.7%	?
COc1cccc(C(=O)c2cn(CC(=O)Nc3ccc4c(c3)OCCO4)c3nc(C)ccc3c2=O)c1	.	.	-8.8%[46.1 µM]	.	-5.7%	0.0%	.	-3.7%
COc1cc(C)c(S(=O)(=O)NOCc2ccccc2)c(C)c1C	.	-13.0%	.	-92.2%	.	47.8%[activator]	2.0%	.
CCOC(=O)CC(NC(=O)Cn1nnc(-c2ccccc2F)n1)c1ccc(OC)cc1 (stereo not given)	11.8%[46.1 µM]	-0.6%	-8.7%	.	.	11.0%	2.3%	.
CCOC(=O)NC(=O)/C(C#N)=C/c1ccc(N(C)C)cc1	12.7%[46.1 µM]	-1.6%	12.5%	-2.2%	.	25.5%	30.1%	.
Cc1ccc(CN(C(=O)c2ccc([N+](=O)[O-])cc2)c2ccccn2)cc1	23.3%[46.1 µM]	.	-18.2%[46.1 µM]	.	-2.1%	4.4%	.	1.0%
O=C(CN1CCN(c2ccc(Cl)cc2[N+](=O)[O-])CC1)N1CCOCC1	-0.1%[46.1 µM]	2.3%	-4.8%	6.0%	.	-13.7%	1.5%	.
CCc1ccccc1NC(=O)Cn1nnc(-c2nc(-c3ccc(C)cc3)no2)c1N	.	.	2.3%[46.1 µM]	.	0.3%	-7.2%	.	-8.7%
O=C(O)c1cc([N+](=O)[O-])cc([N+](=O)[O-])c1N1CCN(c2cccc(C(F)(F)F)c2)CC1	.	-0.2%	.	6.9%	.	18.9%	-9.8%	.
Cc1cc(C)cc(NC(=O)CSc2nc(-c3ccccc3)c3cc(F)ccc3n2)c1	1.8%[46.1 µM]	.	8.1%[46.1 µM]	.	2.0%	?	.	-3.9%
CCOc1ccc(/C=C/C(=O)c2cc(Br)ccc(=O)c2O)cc1	?	-81.7%	?	-27.9%	-3.2%	?	-30.0%	-27.9%
CCc1ccc(NC(=O)CSc2nc3ccccc3nc2Cc2ccccc2OC)cc1	.	.	-3.8%[46.1 µM]	.	1.7%	-15.8%	.	0.9%
COc1cc2c(=O)n(CCC(=O)NCC3CCCO3)c(=O)n(CC(=O)Nc3ccc(C)c(C)c3)c2cc1OC (stereo not given)	-23.8%&-1.8%[46.1 µM]	5.1%	3.2%&-0.7%[46.1 µM]	2.3%	-0.9%	-1.0%&-2.7%	5.1%	?
COCCN1Cc2cccc(C(=O)Nc3cccnc3)c2C1=O	2.5%	-0.8%	4.4%	0.0%	-2.8%	-3.7%	-8.3%	-5.2%
COC(=O)c1ccc(CN2[C@H](C(=O)OC)C[C@@]3(O)[C@H](O)[C@H](O)[C@H](O)C[C@@H]23)cc1	.	1.5%	.	5.5%	4.2%	-6.9%	10.5%	-1.0%
CCOC(=O)N1CCN(C(=O)/C(=C/c2ccc(F)cc2)NC(=O)c2ccccc2)CC1	5.5%	-1.3%	-20.3%	5.4%	.	-1.1%	12.4%	.
COc1ccc(N2CCN(C3=CC(=O)N(c4cccc(Cl)c4)C3=O)CC2)cc1	0.8%[46.1 µM]	0.1%	?	.	.	-24.5%	-4.2%	.
O=C(NCC1CCCN(Cc2cccc(F)c2)C1)c1cccc2ccccc12 (stereo not given)	.	6.5%	.	1.4%	.	-21.8%	-3.5%	.
O=C(O)c1cc(-c2ccccc2Cl)n(-c2cccc(Cl)c2)n1	?	1.5%	12.8%[46.1 µM]	3.0%	.	-14.4%	-8.4%	.
Cc1ccc(S(=O)(=O)N2CCCCC2)cc1NC(=O)CSCC(=O)O	18.4%[46.1 µM]	-0.5%	4.3%	.	.	2.7%	-7.6%	.
CC(C)CNS(=O)(=O)c1ccc(S(=O)(=O)NC2CCOC(C)(C)C2)cc1 (stereo not given)	-6.3%	.	-9.2%	.	.	25.6%	6.8%	.
N#CC1(NC(=O)COC(=O)c2cc([N+](=O)[O-])ccc2N2CCCC2)CCCCC1	-16.4%[46.1 µM]	2.6%	1.6%	.	.	-5.1%	-0.7%	.
CCOC(=O)CNc1nc(Cl)nc(N2CCCCC2)n1	.	-1.0%	.	-6.1%	.	-6.6%	-4.4%	.
CCC1Oc2ccc(C)cc2N(Cc2cccc(C)c2)C1=O (stereo not given)	-23.2%	-40.4%	19.2%	-74.6%	-1.5%	7.4%	-3.1%	5.6%
Cc1cc(-c2ccccc2C(=O)O)on1	22.9%[46.1 µM]	4.0%	-1.5%	-9.1%	0.4%	-7.6%	-9.3%	-4.2%
Fc1ccc(NCc2nnc(SCc3ccccc3)o2)cc1	-1.1%	-2.3%	16.1%	-6.4%	.	1.6%	-8.7%	.
NC(=O)CCN(C(=O)c1cccc(S(=O)(=O)N2CCc3ccccc32)c1)c1ccccc1	0.6%	2.5%	2.6%	.	.	-9.7%	-16.9%	.
CC(=O)N1c2ccc(S(=O)(=O)NCCC(=O)N(C)C3CCCCC3)cc2CC1C (stereo not given)	.	-2.7%	.	-4.0%	.	-6.4%	-2.5%	.
CN(C)CCN=c1cc(-c2ccccc2)oc2ccc(Cl)cc12	?	-0.5%	-16.0%	.	.	75.0%[activator]	-0.5%	.
Cc1nn(-c2ccccc2)c2c1C(c1c(C)[nH]c(C#N)c1C)C(C#N)=C(N)O2 (stereo not given)	5.4%	-7.9%	7.6%	1.6%	-6.4%	-11.2%	0.9%	-7.4%
CC(C)C(=O)Nc1ccc(NC(=O)c2cc3ccccc3o2)cc1	?	-4.2%	?	2.8%	-0.7%	16.6%	-2.8%	?
COC(=O)c1sc(N/N=C/c2ccc(C(C)C)cc2)nc1C	?	0.6%	?	22.4%	.	20.5%	15.5%	.
O=C(O)/C=C/C(=O)NNC(=O)c1ccc(Br)cc1	18.6%	1.7%	5.0%	-0.4%	-1.1%	-10.8%	-5.0%	17.4%
COc1ccc(S(=O)(=O)NCCSC(C)(C)C)c(Cl)c1Cl	-0.1%	-15.5%	4.8%	-56.6%	-7.8%	-34.7%	-0.1%	0.4%
COc1ccc(N2C(=O)[C@@H]3[C@H](C2=O)[C@H](C(C)=O)N2c4ccccc4C=C[C@@H]32)cc1	-2.3%	0.3%	-1.0%	18.2%	.	-5.3%	-12.9%	.
Cn1c(N)c(C(c2ccccc2)c2c(N)n(C)c(=O)n(C)c2=O)c(=O)n(C)c1=O	0.8%	-1.7%	-3.3%	10.3%	-2.5%	-14.6%	-4.6%	-18.7%

Later entries:
Compound	MARV entry inh	SARS PLP yeast	Lassa entry inh	NS1 function inh	Cruzain Triton	StopGo reporter	RE007 growth inh	Cruzain noTriton
CCc1ccc(S(=O)(=O)NCCc2csc(C)n2)s1	24.7%[46.1 µM]	-0.2%	3.5%	-3.2%	.	45.7%[activator]	10.2%	.
Cc1ccc(C)c(S(=O)(=O)N2CCN(C(=O)C3CC3C)CC2)c1 (stereo not given)	20.6%	0.9%	-6.5%	.	.	0.0%	-1.0%	.
CC(=O)Nc1ccc(S(=O)(=O)N2CCSC2c2ccccc2)cc1 (stereo not given)	-2.2%	-2.3%	-12.4%	-14.5%	0.4%	0.0%	-0.4%	1.4%
O=C(CSC(=S)N1CCOCC1)Nc1ncc2c(n1)CCCC2=O	-2.7%[46.1 µM]	0.3%	-12.1%	1.7%	.	5.1%	-2.9%	.
